# DUX4 inh: inhibitors of DUX4-driven ZSCAN4 reporter expression, primary screen, 293T cells, Gaussia and Italica luciferase; 293T-iDUX4 ZSCAN4-Gaussia luciferase reporter, 24 h; stronger effect = lower value; activity change, negative = inhibition, % (concentration not given with the values); 37,000 compounds, 0.8% hits;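 active = -10% or lower and over 25 points stronger than a control reporter; inconclusive = -10% or lower with a smaller gap; inactive = above -10%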;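 note: 0% = median of neutral control wells and -100% = median of positive control wells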
# DUX4 inh difference: second read-out of DUX4 inh, no call of its own (marks repeat the call); Gaussia minus Italica difference, %; measured here: selective DUX4 reporter inhibition;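 worked out from the two reporters; negative = selective loss of the DUX4 reporter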
# DUX4 inh control: second read-out of DUX4 inh, no call of its own (marks repeat the call); activity change, negative = inhibition, %; measured here: Italica tet-on control reporter;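 0 = neutral control and -100 = positive control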
# The depositor's hits bear a star; ? = inconclusive; . = not tested or not shown; & = joins results of further samples.
SMILES,DUX4 inh,DUX4 inh difference,DUX4 inh control
Cc1noc(C)c1S(=O)(=O)N(C)C[C@H]1OCCCC[C@@H](C)Oc2ccc(NC(=O)c3ccccc3)cc2C(=O)N([C@@H](C)CO)C[C@H]1C,-3.0,-2.4,-0.6
CCNC(=O)[C@H]1[C@H](CO)[C@H]2Cn3c(ccc(-c4ccccc4F)c3=O)[C@@H]1N2Cc1cccnc1,-1.2,-2.5,1.3
COCC(=O)Nc1ccc2c(c1)[C@@H]1C[C@@H](CC(=O)NCc3cccnc3)O[C@@H](CO)[C@@H]1O2,5.8,5.5,0.3
COCC(=O)N1CC2(C1)CN(Cc1cc(F)ccc1F)[C@H](CO)c1[nH]c3cc(OC)ccc3c12,?,.,.
C[C@H]1CN([C@@H](C)CO)C(=O)CCCn2nncc2CO[C@H]1CN(C)S(=O)(=O)c1ccc(F)cc1,5.0,7.6,-2.6
O=C(CN1CCOCC1)N1CC(=O)N2[C@H](C1)[C@H](c1ccc(-c3cccc(F)c3)cc1)[C@@H]2CO,9.8,8.9,0.9
C/C=C/c1ccc([C@@H]2[C@@H](CNC(C)=O)N(Cc3ccccn3)[C@H]2CO)cc1,0.2,-1.4,1.7
CN1C(=O)c2cc(NC(=O)Cc3cccs3)ccc2OC[C@@H]2O[C@@H](CC(=O)NCCCN3CCOCC3)CC[C@@H]21,-2.0,-0.5,-1.4
COc1ccccc1CN1[C@@H]2CN(C(=O)C3CCCCC3)c3ccccc3[C@@H]2[C@@H]1CO,6.5,-1.9,8.4
COc1ccc2c3c(n(C)c2c1)[C@H](CO)N(CC1CC1)CC31CCN(C(=O)NC2CCCC2)CC1,4.4,-12.8,17.2
O=C(C[C@H]1CC[C@@H]2[C@H](COC[C@H](O)CN2C(=O)c2ccccc2)O1)NCCCN1CCOCC1,8.0,3.8,4.2
COCC#Cc1ccc([C@H]2[C@H]3CN(S(=O)(=O)c4ccc(OC)cc4)CCCCN3[C@H]2CO)cc1,-8.2,-5.0,-3.2
COC(=O)C[C@@H]1CC[C@H]2[C@H](COc3ccc(NC(=O)NCc4ccccc4)cc3C(=O)N2C)O1,-1.9,1.1,-2.9
COc1cccc(-c2ccc([C@H]3[C@@H](CO)N4C(=O)CN(C(=O)c5cccnc5)C[C@@H]34)cc2)c1,14.1,1.7,12.4
CO[C@H]1CC[C@H]2CCOc3ccc(C#N)cc3C(=O)N(C)C[C@@H](c3ccccc3)CC(=O)N(C)C[C@@H]1O2,0.9,0.9,-0.1
COc1ccc2c3c(n(C)c2c1)[C@H](CO)N(Cc1ccccc1F)CC31CCN(CC2CC2)CC1,?,.,.
COCC(=O)N1[C@H](C#N)[C@H](c2ccc(C#Cc3ccccc3F)cc2)[C@@H]1CO,4.3,-1.7,6.1
Cc1noc(C)c1NC(=O)N(C)C[C@@H]1OCCCC[C@@H](C)Oc2ccc(N(C)C)cc2C(=O)N([C@@H](C)CO)C[C@@H]1C,-1.6,-7.2,5.7
O=C(C[C@H]1CC[C@@H]2[C@H](COC[C@H](O)CN2S(=O)(=O)c2ccccc2)O1)NCc1ccc(-c2ccccc2)cc1,?,.,.
CC(C)C#Cc1ccc([C@@H]2[C@H](C#N)N(C(=O)CN(C)C)[C@H]2CO)cc1,0.9,-1.3,2.2
CO[C@@H]1CN(C)C(=O)c2ccc(NC(=O)c3cc(C)on3)cc2OC[C@@H](C)NC[C@H]1C,11.2,9.1,2.2
C/C=C/c1ccc2c(c1)O[C@@H](CN(C)Cc1ccc(C(=O)O)cc1)[C@@H](C)CN([C@H](C)CO)S2(=O)=O,-5.3,-3.6,-1.7
C[C@@H]1CN([C@@H](C)CO)C(=O)CCCn2cc(nn2)CO[C@@H]1CN(C)C(=O)Nc1ccc(N2CCCCC2)cc1,2.7,2.8,-0.1
CCC(=O)Nc1ccc2c(c1)C(=O)N(C)C[C@H](OC)[C@@H](C)CN(C(=O)Cc1cccnc1)[C@@H](C)CO2,1.9,1.2,0.7
CN1C(=O)c2cc(NC(=O)Nc3ccccc3Cl)ccc2OC[C@@H]2O[C@H](CC(=O)O)CC[C@H]21,0.2,-1.5,1.7
COc1ccc(CN2[C@H](CO)[C@@H]3c4ccccc4N(C(=O)Nc4ccccc4)C[C@@H]32)cc1,1.2,1.3,-0.1
O=C(C[C@@H]1CC[C@H]2[C@@H](COC[C@@H](O)CN2Cc2nccs2)O1)NCc1ccccc1F,-2.9,0.3,-3.2
C[C@@H]1C(=O)N[C@@H](c2ccccc2)CC=CC[C@H](C)Oc2ccccc2C(=O)N1C (mixture of isomers),0.5,2.2,-1.8
Cc1noc(C)c1NC(=O)Nc1ccc2c(c1)C(=O)N([C@@H](C)CO)C[C@H](C)[C@@H](CN(C)C(=O)NC1CCCCC1)OCCCC[C@H](C)O2,0.2,0.9,-0.7
C[C@H](CO)N1C[C@H](C)[C@H](CN(C)C(=O)c2ccc3ccn(C)c3c2)OCc2cn(nn2)CCCC1=O,8.1,7.6,0.6
O=C(C1CCOCC1)N1C[C@@H]2[C@H](c3ccccc31)[C@H](CO)N2Cc1ccccc1,2.0,5.3,-3.4
CC=Cc1ccc2n(c1=O)C[C@@H]1[C@@H](CO)[C@H](C(=O)N3CCc4ccccc4C3)N(C(=O)CC)[C@H]21 (mixture of isomers),0.4,-6.4,6.8
CCN1[C@@H]2c3ccc(C4=CCCCC4)c(=O)n3C[C@H]1[C@H](CO)[C@H]2C(=O)N1CCCCC1,-2.7,-2.2,-0.5
CC(C)NC(=O)N(C)C[C@H]1Oc2ccc(NC(=O)Cc3ccccc3)cc2CC(=O)N([C@@H](C)CO)C[C@@H]1C,-4.5,-4.9,0.3
C[C@H]1CN([C@@H](C)CO)S(=O)(=O)c2ccc(-c3ccc(C(=O)N(C)C)cc3)cc2O[C@@H]1CN(C)C(=O)Cc1ccccn1,2.5,2.2,0.3
CC(C)C#Cc1ccc([C@@H]2[C@H](CO)N3C(=O)CN(C(=O)NC4CCCC4)C[C@@H]23)cc1,?,.,.
CN1C(=O)c2cc(NC(=O)C3CCOCC3)ccc2OC[C@H]2O[C@@H](CC(=O)NC3CCCC3)CC[C@H]21,1.9,-2.7,4.6
CC(C)NC(=O)Nc1cccc2c1O[C@H](CN(C)C(=O)Nc1ccccc1)[C@H](C)CN([C@@H](C)CO)C2=O,0.9,-0.8,1.6
Cc1cccc(NC(=O)C[C@H]2CC[C@H]3[C@@H](COc4ccc(NC(=O)C5CCC5)cc4C(=O)N3C)O2)c1,-1.4,-3.9,2.5
O=C([C@H]1[C@H](CO)[C@H]2Cn3c(cccc3=O)[C@H]2N1Cc1ccccc1)N1CCCCC1,?,.,.
O=C(C[C@H]1C[C@H]2c3cc(NC(=O)CC4CC4)ccc3O[C@H]2[C@H](CO)O1)NCCc1ccccc1,-0.2,2.4,-2.6
COc1cccc(S(=O)(=O)N2C[C@@H](O)COC[C@H]3O[C@H](CC(=O)N4CCN(C)CC4)CC[C@@H]32)c1,1.9,-4.9,6.8
CO[C@H]1CN(C)C(=O)c2cc(NC(=O)c3cnccn3)ccc2OC[C@H](C)N(C)C[C@@H]1C,2.0,-3.1,5.1
CN1CCN(C(=O)C[C@@H]2C[C@@H]3c4cc(NC(=O)Cc5ccncc5)ccc4O[C@@H]3[C@H](CO)O2)CC1,2.5,-0.1,2.6
C[C@@H]1CN([C@H](C)CO)C(=O)c2cc(NC(=O)C3CCCCC3)ccc2O[C@@H](C)CCCCO[C@H]1CN(C)C(=O)c1ccccc1,3.6,-2.1,5.7
N#C[C@@H]1[C@@H](c2ccc(C#CC3CC3)cc2)[C@@H](CO)N1C(=O)Cc1ccccn1,1.2,1.1,0.0
CN1C(=O)c2cc(NC(=O)Cc3cccs3)ccc2OC[C@H]2O[C@H](CC(=O)NCC3CCCCC3)CC[C@H]21,1.8,-0.1,1.9
O=C(C[C@H]1CC[C@@H]2[C@H](COC[C@@H](O)CN2C(=O)Nc2ccc(Cl)cc2)O1)N1CCCCC1,22.4,13.1,9.3
CCS(=O)(=O)N1CC(=O)N2[C@H](CO)[C@@H](c3ccc(C#CCC(C)C)cc3)[C@H]2C1,-1.2,-4.6,3.4
CCC(=O)N1CC[C@@H]2[C@@H](CO)Nc3ccc(-c4cccc(C#N)c4)cc3[C@@H]21,19.3,7.0,12.2
CC(C)NC(=O)N1[C@@H](C#N)[C@H](c2ccc(-c3ccc(F)cc3)cc2)[C@@H]1CO,4.5,-1.8,6.3
CC(=O)N1[C@H](CO)[C@H](c2ccc(-c3cccnc3)cc2)[C@@H]1CNC(=O)C1CCC1,-5.0,-4.1,-0.9
CCC(=O)N1[C@H](CO)[C@@H](c2ccc(-c3ccc(C#N)cc3)cc2)C12CN(C(C)=O)C2,6.2,1.7,4.5
C[C@H]1CN([C@@H](C)CO)C(=O)CCCn2nncc2CO[C@H]1CN(C)C(=O)Nc1ccccc1C(F)(F)F,1.5,4.7,-3.2
COc1ccc(NC(=O)N(C)C[C@H]2OCCCC[C@@H](C)Oc3ccc(NS(=O)(=O)c4cccs4)cc3C(=O)N([C@H](C)CO)C[C@@H]2C)cc1,1.8,-2.7,4.5
CC(C)OC(=O)N(C)C[C@@H]1OCc2ccccc2-c2ccccc2C(=O)N([C@H](C)CO)C[C@@H]1C,4.2,-3.4,7.6
O=C(c1cccnc1)N1C[C@H]2[C@@H](c3ccccc31)[C@@H](CO)N2C(=O)CN1CCOCC1,-5.5,-3.6,-1.8
C[C@H]1CN([C@@H](C)CO)S(=O)(=O)c2ccc(C3=CCCC3)cc2O[C@H]1CN(C)CC1CCOCC1,-1.8,0.3,-2.0
COc1ccccc1NC(=O)N1CCCCN2[C@H](CO)[C@@H](c3ccc(C#CC4CCCC4)cc3)[C@H]2C1,9.9,-4.0,13.8
COCC(=O)N1CC[C@@H]2[C@H]1c1cc(-c3cccc(F)c3)ccc1N(C)[C@@H]2CO,4.7,2.1,2.7
# The list continues.
SMILES,DUX4 inh,DUX4 inh difference,DUX4 inh control
Cc1ccccc1-c1ccc([C@@H]2[C@@H](CO)N3C(=O)CN(C(=O)c4ccc(F)cc4)C[C@H]23)cc1,-1.7,0.2,-1.9
CCC(=O)N[C@H]1C=C[C@@H](CC(=O)OC)O[C@H]1CO,-1.4,-10.2,8.9
OC[C@H]1[C@@H](c2ccc(-c3cccnc3)cc2)[C@H]2CN(Cc3ccccn3)CCCCN21,21.1,17.1,4.0
CN(C)CC(=O)N1CC(=O)N2[C@H](CO)[C@@H](c3ccc(-c4ccc(C#N)cc4)cc3)[C@H]2C1,5.6,13.4,-7.8
COCC(=O)N1CC2(CCN(Cc3cncnc3)CC2)c2c(n(C)c3cc(OC)ccc23)[C@@H]1CO,13.2,-4.5,17.7
Cn1cnc(CCNC(=O)C[C@@H]2CC[C@H]3[C@@H](COC[C@@H](O)CN3C(=O)Nc3ccc(F)cc3)O2)c1,5.1,-2.3,7.4
O=S(=O)(c1ccc(F)cc1)N1CCCCN2[C@H](CO)[C@@H](c3ccc(C#CC4CC4)cc3)[C@@H]2C1,-9.2,-18.7,9.5
N#C[C@@H]1[C@H](c2ccc(C3=CCCC3)cc2)[C@@H](CO)N1C(=O)NC1CCCCC1,-6.4,-8.6,2.1
COc1cc(CN2CC3(CN(C)C3)c3c([nH]c4cc(OC)ccc34)[C@@H]2CO)cc(OC)c1,3.4,-10.8,14.2
N#C[C@@H]1N[C@@H](CO)[C@H]1c1ccc(C#Cc2ccc(F)cc2)cc1,0.2,4.7,-4.4
O=C(C[C@H]1C[C@H]2c3cc(NC(=O)CC4CC4)ccc3O[C@H]2[C@H](CO)O1)NCC1CC1,2.4,0.2,2.3
Fc1cccc(-c2ccc(C3[C@H]4CNC[C@@H]3N4Cc3cncnc3)cc2)c1 (some centres not stated),20.9&9.3,12.9&9.6,8.0&-0.3
CO[C@@H]1CN(C)C(=O)c2cc(NS(=O)(=O)CC(F)(F)F)ccc2OC[C@@H](C)N(C)C[C@H]1C,-2.3,-2.2,-0.1
O=C(C1CCC1)N1[C@@H](CO)[C@@H](c2ccccc2)C12CN(CCC(F)(F)F)C2,?,.,.
O=C(Cc1ccccn1)N[C@H]1CC[C@@H](CCNS(=O)(=O)c2cccc(F)c2)O[C@H]1CO,?,.,.

# Random excerpt: 5 entries already listed
SMILES,DUX4 inh,DUX4 inh difference,DUX4 inh control
COc1cc(CN2CC3(CN(C)C3)c3c([nH]c4cc(OC)ccc34)[C@@H]2CO)cc(OC)c1,3.4,-10.8,14.2
Fc1cccc(-c2ccc(C3[C@H]4CNC[C@@H]3N4Cc3cncnc3)cc2)c1 (some centres not stated),20.9&9.3,12.9&9.6,8.0&-0.3
CN(C)CC(=O)N1CC(=O)N2[C@H](CO)[C@@H](c3ccc(-c4ccc(C#N)cc4)cc3)[C@H]2C1,5.6,13.4,-7.8
CO[C@@H]1CN(C)C(=O)c2cc(NS(=O)(=O)CC(F)(F)F)ccc2OC[C@@H](C)N(C)C[C@H]1C,-2.3,-2.2,-0.1
CCC(=O)N[C@H]1C=C[C@@H](CC(=O)OC)O[C@H]1CO,-1.4,-10.2,8.9

# More compounds follow:
SMILES,DUX4 inh,DUX4 inh difference,DUX4 inh control
CCS(=O)(=O)N1[C@H](CO)[C@H](c2ccccc2)[C@H]1CN(C(C)=O)C1CCCC1,-0.7,0.0,-0.7
CC(C)NC(=O)N1CC2(C1)[C@@H](c1ccccc1)[C@@H](CO)N2C(=O)C1CCCC1,7.6,5.2,2.5
COc1cccc(C(=O)Nc2ccc3c(c2)OC[C@@H](C)N(CCc2ccccc2)C[C@@H](C)[C@@H](OC)CN(C)C3=O)c1,?,.,.
O=C(C[C@@H]1CC[C@@H]2[C@H](COC[C@H](O)CN2CC2CCOCC2)O1)N1CCOCC1,3.1,2.9,0.1

# Profiles from above.
# `Cc1noc(C)c1NC(=O)N(C)C[C@@H]1OCCCC[C@@H](C)Oc2ccc(N(C)C)cc2C(=O)N([C@@H](C)CO)C[C@@H]1C` across the screens: DUX4 inh = -1.6; DUX4 inh difference = -7.2; DUX4 inh control = 5.7
# `CO[C@H]1CN(C)C(=O)c2cc(NC(=O)c3cnccn3)ccc2OC[C@H](C)N(C)C[C@@H]1C` across the screens: DUX4 inh = 2.0; DUX4 inh difference = -3.1; DUX4 inh control = 5.1

# Source: PubChem

# A portion of the library; the hit share may differ from the screen's.
